Six1-Eya2 blk = blocks human Six1 binding to Eya2 | Q15475+O00167 | AlphaScreen GST-Six1/His-Eya2 binding, biochemical; stronger effect = lower value; control for the full effect not named in the record | activity change, % (test concentration not listed) | hit rate 0.56% among 360,000; in the data active = activity change below about -65%; inconclusive = about -30% to -65%; inactive = above about -30%; note: % is set by controls: 0 for no effect and ±100 for the full control effect; compound concentration not given in the record
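Compounds are tested against tagged Six1 and Eya2 proteins bridged by glutathione donor and nickel acceptor beads; after a one-hour incubation at 37 °C without light, AlphaScreen emission is recorded.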
D2 ag = agonists of human D2 dopamine receptor (beta-arrestin). DiscoveRx PathHunter D2 beta-arrestin, luminescence, 90 min; 100% = 57 uM dopamine signal. activation, % (concentration not given with the values). hit rate 0.084% among 360,000. AID 624465; in the data active = activation above about 40%; inconclusive = about 15% to 40%; inactive = below about 15%; note: compound concentration not given in the record; the text of the record calls up to 30% inactive
Target sequence (P14416 whole entry, looked up): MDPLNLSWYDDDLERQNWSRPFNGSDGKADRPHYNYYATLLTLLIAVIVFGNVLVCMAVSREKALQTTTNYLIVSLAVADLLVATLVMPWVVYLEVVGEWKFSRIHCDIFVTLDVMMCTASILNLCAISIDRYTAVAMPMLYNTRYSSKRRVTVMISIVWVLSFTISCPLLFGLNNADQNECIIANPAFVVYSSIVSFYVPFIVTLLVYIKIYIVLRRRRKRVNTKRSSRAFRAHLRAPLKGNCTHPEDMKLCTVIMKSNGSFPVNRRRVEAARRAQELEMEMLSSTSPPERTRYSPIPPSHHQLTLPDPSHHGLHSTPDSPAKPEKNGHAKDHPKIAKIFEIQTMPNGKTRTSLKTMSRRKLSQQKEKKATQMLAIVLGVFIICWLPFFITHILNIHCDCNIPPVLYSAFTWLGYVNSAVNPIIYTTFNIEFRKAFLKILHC
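DiscoveRx PathHunter D2 beta-arrestin cells (2,100/well) attached overnight, then compound-stimulated 90 min at 37 C in HBSS/10 mM HEPES/0.1% Tween-20 buffer; beta-galactosidase complementation read by luminescence after 1 h at ambient temperature. Dopamine 57 uM final (EC100) as control.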
TRPML1 inh = blocks the human TRPML1 channel; Q9GZU1; TRPML1-inducible cells, Ca2+ dye fluorescence, FDSS; stronger effect = lower value; inhibition of EC80 agonist-evoked calcium signal; activity change, negative = inhibition, % (no concentration beside the values); hit rate 0.02% among 390,000; AID 624415; in the data active means activity change below about -50%; inconclusive means about -30% to -50%; inactive means above about -30%;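 note: stimulus is agonist 54-4 at its EC80 concentration; % is set by controls: 0 for no effect and ±100 for the full control effect; compound concentration not given in the record; the text of the record puts the active cut at -80%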
Target sequence (Q9GZU1 whole entry, looked up): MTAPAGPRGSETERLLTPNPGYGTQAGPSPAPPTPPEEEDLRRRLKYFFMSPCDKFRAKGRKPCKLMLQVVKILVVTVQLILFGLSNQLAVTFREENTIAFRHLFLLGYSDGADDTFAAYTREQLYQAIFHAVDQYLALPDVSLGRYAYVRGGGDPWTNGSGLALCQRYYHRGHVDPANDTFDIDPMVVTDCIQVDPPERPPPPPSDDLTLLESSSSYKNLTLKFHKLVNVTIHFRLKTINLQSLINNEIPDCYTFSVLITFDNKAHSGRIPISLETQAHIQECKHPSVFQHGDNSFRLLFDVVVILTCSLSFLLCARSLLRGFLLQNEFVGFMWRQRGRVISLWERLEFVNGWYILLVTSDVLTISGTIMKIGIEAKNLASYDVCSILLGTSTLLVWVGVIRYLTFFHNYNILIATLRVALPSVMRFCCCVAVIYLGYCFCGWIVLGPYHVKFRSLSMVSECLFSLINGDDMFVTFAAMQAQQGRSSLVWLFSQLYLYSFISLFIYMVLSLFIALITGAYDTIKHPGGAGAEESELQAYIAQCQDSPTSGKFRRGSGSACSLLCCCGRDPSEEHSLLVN
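Tet-induced TRPML1-DL cells loaded with Ca8 no-wash calcium dye were read kinetically on FDSS. Compound addition was followed by EC80 agonist 54-4 (4 uM final); inhibition was read over 110 s.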
D2 potentiator = potentiates the human D2 dopamine receptor allosterically; P14416; AID 624464; potentiation, % (test concentration not listed); hit rate 0.23% among 360,000; DiscoveRx D2 beta-arrestin cells, luminescence, 90 min; 100% = 57 uM dopamine signal; active = potentiation of 50% or more; inconclusive = 30% to 50%; inactive = 30% or less;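 note: compound concentration not given in the record; tested on top of an EC20 dose of dopamine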
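PathHunter D2 cells, attached overnight at 37 deg C, received compound in DMSO plus dopamine at EC20 (50 nM final) for 90 min at 37 deg C. Beta-arrestin recruitment was read as luminescence after 1 h with detection reagent at ambient temperature.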
PINK1 expr mod = changes PINK1 expression | PINK1 immunofluorescence, high-content cytometry, 24 h | Potency, µM (doses to about 76.6 µM), inactives show at the top dose activation (PINK1 increase), actives largely listed as activators | hit rate 0.2% among 410,000 | AID 624263; active = well fitted activation curve with a large enough effect; inconclusive = small, poorly fitted or top-dose-only effect; inactive = flat fitted curve, though single readings scatter; cell line not stated here;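 note: potency is the fitted concentration of half-maximal effect; % of control where 0% means no effect; nearly all actives have a fitted effect of over 65% in size; a mitochondrial uncoupler was the plate control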
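PINK1 protein level read as immunofluorescence by microplate cytometer in a fixed, stained stable cell line after 24 h exposure to five compound concentrations, with CCCP as control.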
TRPML1 agonist = agonists of human TRPML1 channel; hit rate 0.12% among 410,000; activation, % (test concentration not listed); TRPML1-expressing cells, Ca2+ dye fluorescence, FDSS; host cell line not named in the record; reference of the full effect not given here; Q9GZU1; in the data active = activation above about 50%; inconclusive = about 30% to 50%; inactive = below about 30%; note: 0% is about no effect; the text of the record puts the active cut at 80%
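In this qHTS format, compounds were pin-transferred onto Ca8-dye-loaded TRPML1-DL cells induced with Tet overnight, and intracellular Ca2+ fluorescence was recorded kinetically for 110 s after a 10 s baseline. A subsequent 4uM final 54-4 (EC80) addition followed by a second 110 s read served as the antagonist phase.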
* hit, by the source's call; ? = inconclusive; · = not tested or not shown; [ ] = another dose, or the depositor's remark.

SMILES | Six1-Eya2 blk | D2 ag | TRPML1 inh | D2 potentiator | PINK1 expr mod | TRPML1 agonist
N#Cc1ccccc1COc1cccc2c1CCCC2O (configuration not stated) | 4.6 | 0.6 | -0.5 | -1.9 | 4.5% | 1.3
COc1ccc(CNC(=O)c2nnn(-c3cccc(C(F)(F)F)c3)c2N)cc1 | -12.3 | -0.2 | -2.7 | -5.8 | 1.4% | 1.7
COC(=O)[C@]1(C)N[C@H](CN(C)S(=O)(=O)c2ccc(OC(F)(F)F)cc2)[C@@H]2C(=O)N(Cc3ccccc3)C(=O)[C@@H]21 | 4.2 | 0.2 | 0.7 | -3.2 | 0.0% | -0.5
Cc1ccccc1NC(=O)CCc1c(C)nn(-c2ccc(N3CCOCC3)nn2)c1C | 25.9 | -1.2 | ? | -5.9 | 0.4% | -0.9
O=C(CCN1CCN(c2ccc(F)cc2)CC1)Nc1ccccc1F | 12.7 | 1.5 | 25.4 | -17.1 | -0.5% | -0.5
Cc1cc(NC(=O)COc2coc(CN3CCN(c4ccccc4F)CC3)cc2=O)no1 | -5.1 | 12.2 | 2.2 | 7.3 | -2.6% | 2.3
O=C(CCC(=O)c1ccc(-c2ccccc2)cc1)Nc1cccnc1 | 1.2 | -7.3 | · | -8.2 | 5.3% | ·
CC1(C)C=C(c2ccc(C=O)s2)CC(C)(C)N1C=O | 14.1 | 1.5 | -4.1 | -13.6 | -0.5% | 0.0
CC(=O)Nc1cccc(-c2ccnc3c2CC(C)(C(=O)Nc2ccccc2)O3)c1 (configuration not stated) | 1.9 | 6.3 | · | -11.9 | 7.6% | -0.3
Cc1cc2c(cn1)C(CCC#N)(CCC#N)c1ccccc1-2 | -9.4 | -2.4 | 7.6 | -8.7 | 0.7% | 0.0
COc1cccc(CNC(=O)COC(=O)CNC(=O)c2ccc(-c3ccccc3)cc2)c1 | -5.8 | -3.4 | 51.2 | -11.8 | 3.0% | 2.6
NC1(C#Cc2ccc3oc(=O)c(-n4cc(C5(O)CCCCC5)nn4)cc3c2)CCCCC1 | -5.5 | -0.7 | 22.6 | -5.1 | 1.4% | -0.4
Cc1ccc(N(C)C(=O)N2CCN(S(=O)(=O)c3ccc(C)cc3)CC2)cc1 | 8.6 | -0.7 | 16.6 | -7.1 | 0.0% | 0.7
COc1cc(NC(=O)NCCc2c(C)nn(C)c2C)cc(OC)c1OC | · | · | -2.5 | · | 0.2% | 0.1
CN1CCCC1CCNc1ccc2sc3ccccc3c(=O)c2c1 (configuration not stated) | -28.5 | -2.5 | 22.5 | -22.9 | 0.4% | 18.0
O=C(CCCN1C(=O)C(c2ccccc2)Oc2cccnc21)Nc1ccccc1Br (configuration not stated) | 7.2 | 0.2 | 10.0 | -3.6 | 0.4% | 2.8
O=C1CN(C(=S)NC(=O)c2ccc(-c3ccccc3)cc2)CCN1 | -0.1 | -5.0 | -19.9 | -11.9 | 1.9% | -0.3
CCCCC(c1nnnn1C(C)C)N1CCN(C(=O)c2ccco2)CC1 (configuration not stated) | 1.1 | -6.8 | 3.1 | -9.5 | 3.0% | -1.0
CCN(CC)c1ccc(S(=O)(=O)N2CCOCC2)cc1NC(=O)CSc1n[nH]c(N)n1 | 4.2 | -3.8 | -11.6 | -8.2 | 0.1% | -0.6
O=C(Nc1c(C(=O)N2CCCCC2)cnn1-c1ccccc1)c1ccco1 | 8.1 | 1.6 | 0.4 | 8.0 | · | 0.3
CCN(CC)C(=O)c1sc(NC(=O)c2ccc3c(c2)OCO3)c(C(N)=O)c1C | ? | -3.5 | 4.5 | 1.0 | -0.8% | 0.7
O=C(c1cccn2c(=O)c3cc(Br)ccc3nc12)N1CCN(c2ccccn2)CC1 | 1.4 | -3.6 | -10.5 | -14.0 | 1.3%[38.3 µM] | 0.0
CN(CCc1ccccn1)c1ccccc1 | -24.0 | -2.8 | -7.1 | -8.8 | 2.5% | -0.4
N/C(=N\OC(=O)c1ccc(F)cc1)c1ccc(Br)cc1 | 0.4 | ? | -1.6 | 29.5 | 4.8% | -0.2
CCN(Cc1cccs1)C(=O)CN1C(=O)NC(c2ccccc2)(c2ccccc2)C1=O | -3.6 | -6.0 | -0.8 | -11.0 | 0.3% | 1.1

Ordered by value in PINK1 expr mod (high to low): 3 of the compounds above.
Compound | PINK1 expr mod
N/C(=N\OC(=O)c1ccc(F)cc1)c1ccc(Br)cc1 | 4.8%
CN1CCCC1CCNc1ccc2sc3ccccc3c(=O)c2c1 (configuration not stated) | 0.4%
O=C(CCN1CCN(c2ccc(F)cc2)CC1)Nc1ccccc1F | -0.5%

New compounds follow:
SMILES | Six1-Eya2 blk | D2 ag | TRPML1 inh | D2 potentiator | PINK1 expr mod | TRPML1 agonist
CC(C)CN1CCC1(C)C(=O)Nc1cccc(C#N)c1 (configuration not stated) | 2.9 | -2.4 | · | 2.7 | -0.4% | -0.2
COc1cc(C(=O)NCc2nc(C)cs2)ccc1OC1CCN(C(C)=O)CC1 | 1.0 | 4.7 | -17.2 | -0.8 | 0.5% | 0.4
CCN(CC)c1nc2c3c(nc4c(c3c1C#N)CC(=O)N4c1ccc(Cl)cc1)NC(C)=N2 | ? | -4.0 | 6.9 | -23.2 | 3.7% | -0.3
COc1ccccc1CNC(=O)CCCN1C(=O)CCn2nc(-c3cn(C)c4ccccc34)cc21 | · | · | -12.0 | · | 2.0% | 2.4
O=C(NC1CCCC1)C(c1cccnc1)N(CCc1ccccc1)C(=O)c1ccco1 (configuration not stated) | 8.3 | -0.2 | 21.4 | 0.3 | 1.7% | -0.1
COc1ccc(/C=N/NC(=S)Nc2c(C)n(C)n(-c3ccccc3)c2=O)cc1OC | -0.3 | -2.7 | 6.9 | -16.1 | -2.2% | -0.3
COCCNC(=O)c1cccc(OC2CCN(Cc3ccc(Cl)c(F)c3)CC2)c1 | 2.0 | 3.6 | 13.1 | -35.5 | 2.0% | 0.7
Cc1ccc(S(=O)(=O)N(c2ccc(Br)cc2)C2C=CS(=O)(=O)C2)cc1 (configuration not stated) | -1.1 | 1.0 | -4.0 | -7.1 | 0.1% | 1.6
Cc1cc(C)c(S(=O)(=O)N2CCOCC2)cc1C | -0.7 | 0.8 | -4.4 | -20.6 | -1.6% | 2.1
O=C(COC(=O)c1cccs1)NCc1cccs1 | 5.0 | -3.8 | 4.7 | -7.5 | 6.3% | 0.6
COc1ccccc1-c1n[nH]nc1C1=CC(=O)CC(C)(C)C1 | 1.3 | -7.7 | 9.0 | 2.3 | -0.6% | -0.3
CC1CC(C)C(=O)C(C(CC2CC(=O)NC(=O)C2)OC(=O)CC(=O)c2ccccc2)C1 (configuration not stated) | 0.0 | -3.0 | -0.6 | -9.9 | -4.4% | 0.3
CC(=O)Nc1ccc(S(=O)(=O)N2CCN(S(=O)(=O)N3CCCCCC3)CC2)cc1 | -1.9 | -2.7 | 12.1 | -38.4 | 2.0% | -0.9
Cc1cccc(C(C)C)c1NC(=O)Cc1ccc(S(=O)(=O)N2CCOCC2)s1 | 5.4 | 1.7 | -9.1 | 5.8 | -0.6% | -0.7
COc1cc(CO)ccc1OCc1nnnn1-c1ccc(C)cc1 | -0.8 | 0.8 | -7.4 | 5.7 | -2.2% | 4.9
CCN(CC)c1ncnc2c1ncn2[C@H]1CN(Cc2cccs2)C[C@@H](CO)O1 | -3.4 | -2.4 | · | -2.3 | -0.5% | -0.6
COc1ccc(C(=O)NCc2cc(C(C)C)no2)cc1OC1CCN(C(C)C)CC1 | 1.4 | -1.5 | -5.3 | -19.2 | 0.9% | 0.1
COc1ccc(-c2nnc3n2N=C(C)CS3)cc1 | -1.5 | -0.3 | -3.3 | -13.7 | 1.8% | -0.1
COc1ccccc1C(O)(C(=O)N(NC(C)=O)c1ccccc1)c1ccccc1OC | -1.5 | 3.1 | 5.1 | -1.3 | -1.8% | -0.1
Cc1cccn2c(CN[C@H]3CCCCNC3=O)c(C(=O)N3CCOCC3)nc12 | -0.4 | 0.5 | -4.1 | 1.6 | -0.7% | -0.5
O=C(CCN1C(=O)/C(=C/c2ccccc2F)SC1=S)NC1C=CS(=O)(=O)C1 (configuration not stated) | -4.4 | 3.0 | -3.4 | 1.3 | 7.2% | -0.4
COc1ccc([N+](=O)[O-])cc1NC(=O)Cc1ccc(Cl)cc1 | 8.4 | -5.1 | 20.3 | -31.6 | -0.4% | 1.6
O=C(NCCCNC(=O)c1cccs1)c1cccs1 | 3.7 | -2.4 | -4.8 | -5.0 | -1.8% | -0.5
Cc1sc2ncn(CC(=O)N3CCN(c4ccccc4)CC3)c(=O)c2c1S(=O)(=O)N1CCC(C)CC1 | · | · | -29.9 | · | 1.1% | 0.8
O=C(O)c1cccc(NC(=O)c2cn(-c3ccccc3)nc2-c2ccncc2)c1 | -6.9 | 10.7 | 1.5 | 0.3 | 0.4% | 0.5
(further entries)
SMILES | Six1-Eya2 blk | D2 ag | TRPML1 inh | D2 potentiator | PINK1 expr mod | TRPML1 agonist
COc1cccc(N=Nc2ccc3ccccc3c2O)c1 | -81.9* | -2.6 | 12.9 | -14.3 | 9.3% | -0.3
O=C(CNC(=O)c1cccs1)NCCc1ccco1 | -3.6 | -0.2 | 0.0 | -8.9 | -1.6% | -0.3
O=C(NCCc1c[nH]c2ccccc12)c1[nH]c(C(F)(F)F)nc1-c1ccccc1 | -23.4 | 0.9 | 6.3 | -1.9 | 0.5% | -0.1
COC(=O)CCC(=O)OC1(C)C(=O)C2=CN(c3ccc(OC)cc3)C(c3ccc(OC)cc3)=CC2=C(Br)C1=O (configuration not stated) | -22.4 | 0.6 | 7.4 | -6.7 | 1.9% | 0.2
COc1ccc(NC(=O)C2(C)Cc3c(-c4ccccc4)ccnc3O2)cn1 (configuration not stated) | 1.2 | 4.0 | · | -16.2 | 15.4% | -0.8
CCOC(=O)CNC1CC(=O)N(c2ccc(Br)cc2)C1=O (configuration not stated) | 5.1 | -2.7 | 11.2 | -2.5 | -1.0% | 0.4
Cc1onc(-c2ccccc2)c1C(=O)OCC(=O)NC(C)c1ccc(Cl)cc1 (configuration not stated) | 5.4 | 5.8 | -5.6 | -4.0 | -0.8% | 4.0
CC1CCCCC1NC(=O)CCCCn1c(=O)[nH]c2ccsc2c1=O (configuration not stated) | 7.3 | 4.5 | 0.3 | -0.5 | 0.0% | -0.2
COC(=O)c1nc(NC(=S)NC(=O)c2cccs2)sc1C | -4.8 | -5.4 | 15.8 | 1.4 | 0.9% | 0.5
O=C(NCc1cccs1)c1noc2c1CCCC2 | 4.2 | -3.1 | 34.8 | -9.1 | 20.1%[38.3 µM] | 0.1
COCCN(C(=O)Nc1ccccc1)c1ccccc1C | 10.2 | 2.8 | 1.4 | -7.8 | -0.8% | 0.5
O=C(CSc1nc2c(c(=O)[nH]1)CCCC2)Nc1ccc(Cl)cc1F | 0.5 | -3.0 | 34.4 | -10.0 | 0.3%[38.3 µM] | 2.3
OC(Cc1ccccc1)c1ncc(-c2ccc(Cl)cc2)[nH]1 (configuration not stated) | -6.1 | 4.2 | · | -3.4 | 4.1% | -0.9
CCN(CC)c1ccc(/C=C2/C(=O)ON=C2C)cc1 | -8.8 | 0.8 | 3.0 | -4.0 | 2.2% | 6.1
